miR-21 FLuc = qHTS Assay for Modulators of miRNAs and/orActivators of miR-21 | HeLa miR-21 FLuc reporter, luciferase, 48 h | Potency, µM (doses to about 38.3 µM), for inactives: at the highest dose reporter change, positive = more light | 340,000 tested, under 10 active; active = well fitted rising curve with a large enough effect; inconclusive = small, poorly fitted or top-dose-only effect; inactive = no such curve, though single readings can be large or run the other way;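 note: % of control where 0% means no effect; miR-21 action dims this reporter so a rising signal means less miR-21 action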
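Luminescence from a firefly luciferase reporter carrying a miR-21 binding site downstream, stably expressed under a CMV promoter in HeLa cells that make miR-21 endogenously, reports miRNA modulation after 48 h compound exposure up to approximately 40uM final.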
Starred values were filed as active, the others as inactive; ? = inconclusive.

SMILES | miR-21 FLuc
COc1ccc(NC(=O)C(NS(=O)(=O)c2ccc3c(c2)CCCC(=O)N3)C(C)C)c(OC)c1 (stereo unspecified) | 2.8%
Cc1ccc2oc(-c3cc(NC(=O)c4ccco4)ccc3Cl)nc2c1 | -14.7%
CN1CCN(C(CNC(=O)c2c(F)cccc2F)c2ccc3c(c2)OCO3)CC1 (stereo unspecified) | -5.1%
CCCc1nn2c(=O)cc(COC(=O)c3cccc(NC(=O)COc4ccc(F)cc4)c3)nc2s1 | -24.8%
COc1cccc(CC(=O)Nc2c(C(=O)N3CCN(c4ccccc4F)CC3)oc3ccccc23)c1 | 26.8%
COc1ccc(N(C(=O)c2ccccc2C)S(=O)(=O)c2ccc3c(c2)n(C)c(=O)n3C)cc1 | -0.2%
CCC1(C)CC(=O)c2c(ccc3oc(C(=O)Nc4ccc(C(C)=O)cc4)c(C)c23)O1 (stereo unspecified) | -37.1%
CN(Cc1ccccc1)C(=O)c1cc(-c2cccc(Cl)c2)on1 | -27.4%
CC1CCN(C(=O)CSc2nnc(-c3ccccc3)o2)CC1 | -42.3%
CCc1ccccc1NC(=O)c1nnn(Cc2ccc(Cl)cc2)c1N | 4.8%
COc1ccccc1CNC(=O)c1ccc2c(c1)N(Cc1c(F)cccc1Cl)C(=O)CS2 | 24.0%
O=C(NCc1ccc(Cl)cc1)c1ccc2c(c1)NC(=O)C(CS(=O)(=O)Cc1ccc(F)cc1Cl)N2 (stereo unspecified) | 5.0%
CCOC(=O)c1ccccc1NC(=O)N1CCc2c(sc(C)c2CC)C1c1ccccc1 (stereo unspecified) | -9.5%
COC(=O)c1ccc(CSc2nc3c([nH]c4ccccc43)c(=O)n2-c2ccc(F)cc2)o1 | 4.5%
COc1ccc(NC(=O)C2CCN(C(=O)N3CCOc4ccccc43)CC2)cc1 | 28.0%
Cc1ccc(-n2nc(CO)c(C(=O)NCc3ccccn3)n2)cc1C | 17.3%
CCN(CC)c1nn2c(=O)c(C(=O)NCCc3ccc(C)cc3)cnc2s1 | 2.6%
CCC(=O)NCc1nc2ccccc2n1Cc1ccccc1 | -2.2%
CCN(CC)S(=O)(=O)c1ccc2oc(C(=O)Nc3cc(C)ccc3OC)c(C)c2c1 | 0.3%
Cc1ccc(OCC(=O)Nc2ccc3nc(SCC(=O)N4CCc5ccccc54)sc3c2)cc1 | -4.6%
COc1ccc(-n2ncc(C(=O)NCCCN3CCCCC3)c2C2CCN(C(=O)OC(C)(C)C)CC2)cc1 | -3.7%
O=C(CSc1nnc(CNC(=O)c2cccc(F)c2)n1-c1ccccc1)Nc1ccccc1F | 3.5%
CCOc1ccc(-n2c(=O)c3c(C)c(C)sc3n(CC(=O)NCCc3ccccc3)c2=O)cc1 | -4.3%
Cc1ccc(Cn2cc(CCC(=O)NCc3ccc(OC(C)C)cc3)c3ccccc32)cc1 | -0.7%
Cc1c(C(=O)NCc2ccccc2)oc2ccc(S(=O)(=O)N3CCC(C)CC3)cc12 | 12.2%
O=C1CC(c2nnc(Cc3ccc(F)cc3)o2)CN1c1ccccc1 (stereo unspecified) | -0.7%
CC(C)(C)c1ccc(S(=O)(=O)N2CCC(Oc3ccc(-n4cnnn4)cc3)CC2)cc1 | -3.4%
CC(C)(C)c1ccc(Oc2ccc(NC(=O)CCC(=O)OCC(=O)c3ccccc3)cc2)cc1 | -2.9%
CCn1c(CC2C(=O)Nc3ccccc32)nc2ccccc2c1=O (stereo unspecified) | 4.6%
COc1cccc(N2CCN(S(=O)(=O)c3cc(Br)cc4c3N(C(=O)C3CC3)CC4)CC2)c1 | -0.6%
COC(=O)C1=C(c2ccccc2)c2ccccc2S(=O)(=O)N1CC(=O)Nc1cccc(C(C)=O)c1 | 16.2%
CSc1cccc(NC(=O)Nc2ccccc2OCc2cc(=O)n3cc(C)ccc3n2)c1 | -11.5%
CCc1cc(C(=O)Nc2c(C)nn(Cc3ccc(C)cc3)c2C)no1 | 15.5%
c1ccc(OCCn2c(COc3ccccc3)nc3ccccc32)cc1 | -16.5%
Cc1ccc(CCNC(=O)CCc2cn(Cc3ccccc3C)c3ccccc23)cc1 | 1.0%
COc1ccc(OCC(=O)NCCS(=O)(=O)N2CCN(c3cccc(Cl)c3)CC2)cc1 | 2.4%
COc1ccccc1-c1noc(-c2ccc(NC(C)C)c([N+](=O)[O-])c2)n1 | -6.9%
COc1ccc(Nc2cc(C)c3cc(NC(=O)c4cc(OC)cc(OC)c4)ccc3n2)cc1 | 15.0%
COc1ccc(C(=O)Nc2nnc(SCc3cc(=O)n4cccc(C)c4n3)s2)cc1 | -8.0%
Cc1cccc(NC(=O)N2CCC(CN3CCOCC3)CC2)c1C | -3.6%

13 compounds out of the list, sorted by molar mass, low to high.
SMILES | miR-21 FLuc
Cc1cccc(NC(=O)N2CCC(CN3CCOCC3)CC2)c1C | -3.6%
O=C1CC(c2nnc(Cc3ccc(F)cc3)o2)CN1c1ccccc1 (stereo unspecified) | -0.7%
Cc1ccc(CCNC(=O)CCc2cn(Cc3ccccc3C)c3ccccc23)cc1 | 1.0%
Cc1c(C(=O)NCc2ccccc2)oc2ccc(S(=O)(=O)N3CCC(C)CC3)cc12 | 12.2%
CSc1cccc(NC(=O)Nc2ccccc2OCc2cc(=O)n3cc(C)ccc3n2)c1 | -11.5%
CCOC(=O)c1ccccc1NC(=O)N1CCc2c(sc(C)c2CC)C1c1ccccc1 (stereo unspecified) | -9.5%
COc1ccc(N(C(=O)c2ccccc2C)S(=O)(=O)c2ccc3c(c2)n(C)c(=O)n3C)cc1 | -0.2%
COc1ccc(OCC(=O)NCCS(=O)(=O)N2CCN(c3cccc(Cl)c3)CC2)cc1 | 2.4%
COc1ccccc1CNC(=O)c1ccc2c(c1)N(Cc1c(F)cccc1Cl)C(=O)CS2 | 24.0%
COc1ccc(NC(=O)C(NS(=O)(=O)c2ccc3c(c2)CCCC(=O)N3)C(C)C)c(OC)c1 (stereo unspecified) | 2.8%
COc1cccc(CC(=O)Nc2c(C(=O)N3CCN(c4ccccc4F)CC3)oc3ccccc23)c1 | 26.8%
CCCc1nn2c(=O)cc(COC(=O)c3cccc(NC(=O)COc4ccc(F)cc4)c3)nc2s1 | -24.8%
COc1cccc(N2CCN(S(=O)(=O)c3cc(Br)cc4c3N(C(=O)C3CC3)CC4)CC2)c1 | -0.6%

Continued.
SMILES | miR-21 FLuc
COc1cccc(/C=C/c2onc(C)c2S(=O)(=O)N2CCC(C(=O)N3CCC(C)CC3)CC2)c1 | 11.1%
COc1cccc(CNC(=O)CN2C(=O)CCCc3ccccc32)c1OC | 0.1%
COc1ccc(-n2nc3ccc(NC(=O)c4cccc(OCCC(C)C)c4)cc3n2)cc1 | -8.2%
Cc1cc(C)cc(NC(=O)c2cc(S(=O)(=O)N3CCCCCC3)cn2C)c1 | -0.5%
COc1ccc(OC)c(NC(=O)c2c(NCc3ccc(OC)c(OC)c3)sc3c2CCC(C)C3)c1 (stereo unspecified) | -3.6%
CCOc1ccc(-c2cc(C(=O)NCCCOC)c3c(-c4ccc(CC)cc4)[nH]nc3n2)cc1 | -5.1%
O=C(NCC(c1cccnc1)N1CCc2ccccc21)c1ccccc1Br (stereo unspecified) | -2.8%
N#Cc1nc(-c2ccc(COc3ccccc3)o2)oc1NCc1ccccc1 | 7.2%
Cc1cc(C)n2nc(CNC(=O)c3c(F)cccc3F)nc2n1 | 1.2%
Nc1c(-c2nc(-c3ccc(Cl)cc3)cs2)c2ccccn2c1C(=O)c1ccc2c(c1)OCO2 | -5.0%
CCOc1ccc(N2CC(C)Cn3c2nc2c3c(=O)n(CC(=O)O)c(=O)n2C)cc1 (stereo unspecified) | -1.2%
CC(C)c1ccc(NC(=O)C(C)N(c2ccccc2)S(C)(=O)=O)cc1 (stereo unspecified) | 3.5%
CCOC(=O)c1ccccc1NC(=O)c1nn(-c2ccc(C)cc2)c(=O)n(C)c1=O | -2.4%
CCOc1ccc(NC(=O)c2cc3c(=O)n4cccc(C)c4nc3s2)cc1 | 1.2%
COc1cc(-c2nnc(SCC(=O)Nc3ccc(F)c(Cl)c3)o2)cc(OC)c1OC | 7.5%
O=C(CN1C(=O)CCn2nc(-c3ccccc3)cc21)NCc1ccccc1 | ?
COc1ccc2c(c1)c(=O)c(C(=O)c1ccc(F)cc1)cn2CC(=O)Nc1ccc2c(c1)OCCO2 | -11.2%
CC(C)(C)NC(=O)c1ccc2nc(CCc3ccccc3)oc2c1 | -44.9%
COc1ccccc1OCC(=O)NCC(c1ccc(Cl)cc1)N1CCCCC1 (stereo unspecified) | -6.3%
CCc1cccc(N2C(=O)N(CC(=O)NCc3cccc(OC)c3OC)c3ccccc3S2(=O)=O)c1 | 27.9%
CCOc1cc(C2c3c(oc4ccccc4c3=O)C(=O)N2c2ccccn2)ccc1O (stereo unspecified) | -7.9%
Cc1ccccc1OCC(=O)Nc1ccc(-c2nc3cc(Cl)cc(Cl)c3o2)cc1 | -3.8%
Cc1ccc(-c2noc(CN(C(=O)COc3cc(C)cc(C)c3C)C(C)C)n2)cc1 | 0.7%
CN(C)S(=O)(=O)N(CC(=O)Nc1ccc(Br)cc1F)c1ccccc1 | -2.1%
COCCNC(=O)c1cc2n(n1)CCCN(Cc1ccc(C)cc1)C2=O | -4.3%
COC(=O)c1ccc(NC(=O)CN(c2cccc(C(F)(F)F)c2)S(C)(=O)=O)cc1 | 24.0%
Fc1ccc(N2CCN(c3nc4ccccc4c4nc(-c5cccnc5)nn34)CC2)cc1 | -2.9%
CC(=O)N1CCN(c2nc3c(C)ccc(Cl)c3s2)CC1 | -34.6%
Cc1nnc2c3ccccc3nc(Nc3ccc(F)cc3Cl)n12 | -2.6%
O=C(CCn1c(=O)c2sccc2n(Cc2ccc(F)cc2Cl)c1=O)NCc1ccc2c(c1)OCO2 | 1.4%
COc1cccc(N(CC(=O)N2CCC(C)CC2)S(=O)(=O)c2ccc(C)cc2)c1 | 28.4%
COc1ccc(OC)c(S(=O)(=O)NCc2cccn2Cc2cccc(C)c2)c1 | 3.3%
COc1ccc(S(=O)(=O)NCCc2sc(-c3ccccc3)nc2C)cc1OC | 1.5%
Cc1ccc(OCCSc2nnc(-c3cccs3)o2)cc1 | -19.5%
O=S(=O)(c1ccc(Cl)cc1Cl)n1ccnc1 | -7.7%
CCOc1ccc(/C=C(\C#N)C(=O)Nc2sc3c(c2C(=O)OC)CCC3)cc1OC | -6.8%
COc1ccccc1CNc1ncnc2onc(-c3ccc(F)cc3)c12 | -5.0%
Cc1ccc(NC(=O)Cn2nc(C)c3nn(-c4ccc(Cl)cc4)c(C)c3c2=O)cc1F | 19.1%
CC(C)(C)C1CCc2nc(NC(=O)c3cccc(Cl)c3)sc2C1 (stereo unspecified) | -33.5%
CCN(CCCNC(=O)c1cc2c(Cl)nc3ccccc3c2s1)Cc1ccccc1 | -19.1%
COC(=O)C1=C(C)N(Cc2ccccc2)C(=NCc2ccc(OC)cc2)N[C@H]1c1ccc(Br)cc1 | 1.1%
CCOc1ccccc1NC(=O)c1ccc2c(Cl)c3c(nc2c1)CCCC3 | -14.8%
Cc1ccc(C(=O)COC(=O)C(Cc2c[nH]c3ccccc23)NC(=O)c2ccc(C(C)(C)C)cc2)cc1 (stereo unspecified) | 0.9%
CC1=C(c2ccc(C(C)C)cc2)S(=O)(=O)N=C1N1CCC(C(=O)NCc2ccccc2)CC1 | -5.6%
Cc1ccc(CSc2nc(=O)c3c(n2C)NC(=O)CC3c2ccc(OC(C)C)cc2)cc1 (stereo unspecified) | -9.5%
COc1cc(OC)c(NC(c2nnc(-c3ccccc3)o2)c2ccc(F)cc2Cl)cc1Cl (stereo unspecified) | -8.3%
COc1ccc(OC)c(-c2nc(C(N)=O)c3c(n2)n(-c2ccc4c(c2)OCO4)c(=O)n3C)c1 | 3.6%
Cc1ccccc1C(=O)N(Cc1ccc(N(C)C)cc1)CC1CCCO1 (stereo unspecified) | -1.2%
O=C(Nc1ccc2oc(-c3cccc(Cl)c3Cl)nc2c1)c1cccc(Br)c1 | -7.2%
CCc1cccc(NC(=O)Cn2c(=O)n(CCC(=O)NCc3ccccc3Cl)c(=O)c3sccc32)c1 | -4.1%
(continued)
SMILES | miR-21 FLuc
COc1ccc(Nc2ncnc3c2cnn3-c2cc(Cl)ccc2C)cc1OC | 2.4%
CN(C(=O)CSc1nc2ccccc2n1Cc1cccc(C(F)(F)F)c1)c1ccccc1 | 4.3%
Cc1cccc(-c2nc3scc(CCNS(=O)(=O)c4ccc(Oc5ccccc5)cc4)n3n2)c1 | 12.6%
COc1ccccc1NC(=O)Cn1c(=O)n(Cc2ccccc2)c(=O)c2ccccc21 | -8.9%
CC(C)c1ccc(NC(=O)c2cc3c(=O)oc4ccccc4c3s2)cc1 | 10.7%
COc1ccc(OC)c(CCNC(=O)CCCn2c(=O)c3cccn3c3ccccc32)c1 | 4.2%
COc1cc(OC)c(NS(=O)(=O)c2c(C(=O)N3CCCCCC3)c(C)n(C)c2C)cc1Cl | -0.3%
Cc1cccc(-n2ncc3c(Nc4ccc(C)c(Cl)c4)ncnc32)c1 | -28.9%
COc1ccc(OC)c(NC(=O)Cn2c(=O)n(Cc3ccccc3)c(=O)c3ccccc32)c1 | 10.9%
Cc1ccc(-n2nc(C)c3c(C(F)(F)F)cc(-c4cccnc4)nc32)cc1C | -0.5%
CCc1ccc(NC(=O)C2CCCN(S(=O)(=O)c3ccc(F)cc3)C2)cc1 (stereo unspecified) | ?
Cc1cccc(-c2nc(CSCC(=O)NCCc3ccc(Cl)cc3)c(C)o2)c1 | 10.2%
COc1ccccc1NC(=O)C(C)Sc1nnc2ccc3ccccc3n12 (stereo unspecified) | 0.0%
CCOc1ccc(C(=O)N(Cc2ccc(C(C)C)cc2)Cc2ccco2)cc1 | 4.4%
COc1cc(NC(=O)C(CC(C)C)NS(=O)(=O)c2ccc3c(c2)CCCC(=O)N3)cc(OC)c1 (stereo unspecified) | -0.6%
Cc1c(Cl)ccc2sc(N3CCN(C(=O)CS(=O)(=O)c4ccccc4)CC3)nc12 | -6.3%
CCOC(=O)c1ccc(NC(=O)CSc2nc3ccccc3c(=O)n2CCC(=O)NC2CCCCC2)cc1 | 5.1%
CCC1CN(S(=O)(=O)c2cc(-c3cc(C)no3)ccc2OC)c2cc(Cl)ccc2O1 (stereo unspecified) | 0.1%

The list is partial. The share of hits here may be higher or lower than overall.
